Source: PubChem BioAssay
TRPV1 potentiator = HTS Assay for Compounds that Act as Potentiators of the Vanilloid Receptor 1 | TRPV1-expressing cells, Fluo-8 calcium influx, capsaicin EC20 potentiation; host cell line not named in the record; control for the full effect not named in the record | potentiation, % at 8.33 µM | 320,000 compounds, 0.02% hits; active means potentiation above 80%; inconclusive means 30% to 80%; inactive means below 30%; also: 0% is about no effect
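Cells expressing TRPV1 were dye-loaded with Fluo-8 and read kinetically: 10 s baseline, 3 min after compound (agonist portion), then 2 min after EC20 capsaicin (allosteric enhancer portion). Calcium-bound dye fluorescence at 480/520 nm.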
D2 potentiator = Beta-Arrestin HTS for Positive Allosteric Modulators of the Human D2 Dopamine Receptor: Potentiators. D(2) dopamine receptor (Homo sapiens), P14416. DiscoveRx D2 beta-arrestin cells, luminescence, 90 min; 100% = 57 uM dopamine signal. 360,000 compounds, 0.23% hits. potentiation, % (no concentration beside the values); active = potentiation of 50% or more; inconclusive = 30% to 50%; inactive = 30% or less;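 also: compound concentration not given in the record; tested on top of an EC20 dose of dopamine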
Target sequence (P14416 whole entry, looked up): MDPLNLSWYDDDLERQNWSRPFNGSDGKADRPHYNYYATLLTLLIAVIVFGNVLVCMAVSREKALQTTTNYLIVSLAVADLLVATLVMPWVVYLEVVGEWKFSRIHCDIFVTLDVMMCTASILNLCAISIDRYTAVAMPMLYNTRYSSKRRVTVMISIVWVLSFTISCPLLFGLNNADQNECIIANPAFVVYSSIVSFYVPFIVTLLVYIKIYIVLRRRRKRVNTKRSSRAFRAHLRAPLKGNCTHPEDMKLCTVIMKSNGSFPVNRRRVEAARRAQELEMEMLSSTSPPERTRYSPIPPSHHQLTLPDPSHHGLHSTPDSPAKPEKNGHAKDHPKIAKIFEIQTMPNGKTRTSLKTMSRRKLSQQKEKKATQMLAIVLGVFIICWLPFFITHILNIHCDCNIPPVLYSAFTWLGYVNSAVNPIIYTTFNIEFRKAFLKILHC
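D2 cells co-treated with compound plus 50 nM dopamine (EC20) for 90 min at 37 deg C to detect potentiation. Beta-arrestin recruitment was read as enzyme-fragment luminescence after 1 h at ambient temperature. Full response was set by 57 uM dopamine.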
Menin-MLL FL inh = qHTS Assay for Inhibitors Targeting the Menin-MLL Interaction in MLL Related Leukemias: Competition With Fluorescein Labeled MLL-derived Peptide | 290,000 tested, under 10 active | AID 1766, 2009 | Fluorescence polarization, fluorescein-MLL peptide displacement from menin | FP activity change, % at 61.4 µM; inconclusive = falling polarisation curve, or a change in total fluorescence; inactive = total fluorescence flat and polarisation flat or rising; no compound was filed as active; the % refers to the polarisation; negative = inhibition;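 also: % of control where 0% means no effect; inhibitors lower the polarisation; unlabelled MLL peptide was the positive control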
Sfp PPTase inh = qHTS Assay for Inhibitors of Bacillus subtilis Sfp phosphopantetheinyl transferase (PPTase) | Biochemical Sfp PPTase activity, qHTS | Potency, µM, for the others: max response, negative = inhibition, most hits filed as inhibitors | 310,000 compounds, 3.5% hits; active = well fitted inhibition curve with a large enough effect; inconclusive = small, poorly fitted or top-dose-only effect, or another doubt; inactive = no such curve, though single readings can be large or run the other way;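 also: the enzyme is Sfp with the accession as filed and its product quenches rhodamine fluorescence; potency is read from the fitted curve at half-maximal effect; 0% = enzyme reaction without inhibitor and -100% = no enzyme wells; top concentration of the series not given in the record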
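Compounds were incubated with enzyme (final 15 nM) for 15 min at room temperature before substrate addition started the reaction. Fluorescence at 525 nm excitation, 598 nm emission was recorded immediately and after 30 minutes.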
gsp antag = qHTS for Antagonists of gsp, the Etiologic Mutation Responsible for Fibrous Dysplasia/McCune-Albright Syndrome: qHTS; gsp-mutant cells, cAMP HTRF, 30 min; control for the full effect not named in the record; Potency, µM (series often up to 76.9 µM), for inactives: top-dose activity change, negative = inhibition, most hits filed as inhibitors; 340,000 compounds, 0.4% hits; active = falling curve of any shape with a large fitted effect; inconclusive = falling curve, mostly with a smaller effect; inactive = flat or rising curve; cell line not stated here;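 also: intracellular cAMP measured with PDE inhibitor Ro 20-1724 present during compound exposure; potency is read from the fitted curve at half-maximal effect; % is scaled to controls: 0 for no effect and ±100 for the full control effect; nearly all actives have a fitted effect of over 65% in size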
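Cells, 2000/well, grown 16–24 h in DMEM 10% FBS with 0.5 mg/ml G418, then compounds plus […] (300 uM addition stock), 30 min at 37C. cAMP read by HTRF (cAMP-d2 and anti-cAMP antibody-K in lysis buffer) after 30 min RT.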
ClpP mod = qHTS Assay for Activators of ClpP. ATP-dependent Clp protease proteolytic subunit (Bacillus subtilis (strain 168)), P80244. purified B. subtilis ClpP, FRET peptide cleavage, 20 min. Potency, µM (titrated, usually from 57.5 µM), for the others: at the top dose activity change, negative = active. 340,000 compounds, 1.9% hits. AID 651965, 2013; active = well fitted falling curve with a large enough effect; inconclusive = small, poorly fitted or top-dose-only effect; inactive = no such curve, though single readings can be large or run the other way; also: potency is read from the fitted curve at half-maximal effect; the source files actives as falling curves though it sought activators and does not explain the sign; nearly all actives have a fitted effect of over 65% in size; many hits overshoot -100%
Target sequence (P80244 whole entry, looked up): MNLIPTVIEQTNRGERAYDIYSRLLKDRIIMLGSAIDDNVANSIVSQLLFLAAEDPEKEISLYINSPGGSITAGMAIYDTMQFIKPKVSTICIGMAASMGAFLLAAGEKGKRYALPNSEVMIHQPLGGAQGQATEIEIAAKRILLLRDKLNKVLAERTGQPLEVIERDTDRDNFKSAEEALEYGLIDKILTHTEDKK
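ClpP 10 microg/mL final, pH 8 Tris/KCl buffer with BSA, glycerol, Tween-20; compound pinned in; FRET-FV substrate; RT 20 min; Ex320/Em430; ΔFRET vs ADEP 5.8 microM, DMSO, no enzyme.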
gsp ag = qHTS for Agonist of gsp, the Etiologic Mutation Responsible for Fibrous Dysplasia/McCune-Albright Syndrome: qHTS; gsp mutant cells, cAMP HTRF, 30 min; control for the full effect not named in the record; Potency, µM (titrated, usually from 76.9 µM), inactives show at the highest dose activation (cAMP increase), actives largely listed as activators; 340,000 compounds, 0.13% hits; AID 624287, 2012; active = well fitted activation curve with a large enough effect; inconclusive = small, poorly fitted or top-dose-only effect, or another doubt; inactive = no such curve, though single readings can be large or run the other way; cell line not stated here;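 also: phosphodiesterase inhibitor Ro 20-1724 added with compounds to block cAMP breakdown; potency is read from the fitted curve at half-maximal effect; nearly all actives have a fitted effect of over 60% in size; about a fifth of the inactives were tested at one dose only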
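Cells in DMEM/10% FBS with G418 were pretreated with compounds in DMSO plus […] (300 uM stock) for 30 min at 37C. cAMP was measured by HTRF (cAMP-d2 plus anti-cAMP antibody-K) after 30 min at room temperature.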
An asterisk follows results filed as active; ? = inconclusive; . = no result given; [ ] = remark or other dose.

Every second line gives: TRPV1 potentiator, D2 potentiator, Menin-MLL FL inh, Sfp PPTase inh, gsp antag, ClpP mod, gsp ag
O=C(Nc1ccc(Br)cc1)c1ccco1
 : -8, 8, -0.1, 9%, ?, -4.0%, 12%
Cc1nc(Nc2ccc(Cl)c(Cl)c2)sc1C(/C=C/c1ccc2c(c1)OCO2)=NNc1ccc([N+](=O)[O-])cc1[N+](=O)[O-]
 : ., -11, ., ., 4%, 2.0%, -3%
COc1ccc(C(=O)N=S2CCN(C(=O)c3ccc(Cl)cc3)CC2)cc1
 : -12, -6, -9.2, -2%, 1%, 1.9%, -59%[inhibitor]
CCN(CC(=O)Nc1ccc(OC)cc1)CC(=O)Nc1cccc(S(=O)(=O)N2CCOCC2)c1
 : ., -9, ., ., ., -0.5%, -41%[inhibitor]
Cc1ccc(C2=NN(CC(=O)NCCN(C)C)C(=O)CC2)cc1
 : 15, -6, 7.5, 12%, 13%, -0.9%, 2%[15.4 µM]
NS(=O)(=O)c1ccc(S(=O)(=O)c2ccccc2)nc1
 : ., 0, ., ., 9%, 0.1%, -1%[15.4 µM]
NS(=O)(=O)c1ccc(N/N=C/c2ccc(C(=O)O)cc2)c([N+](=O)[O-])c1
 : 9, -5, 4.4, ?, -9%, 0.6%, 30%
COC(=O)C1=NNC2(c3ccc(C)cc3)C(=O)N(c3ccc(C)cc3)C(=O)C12 (stereo unspecified)
 : 1, -4, 0.4, 13%, 2%, -0.1%, 12%[15.4 µM]
O=C(NCc1ccncc1)c1cccc(F)c1
 : 2, -8, 2.8, 18%, 4%, -0.9%, -3%
CCCOc1ccc(CC(CC(=O)O)(C(=O)O)C(=O)O)cc1
 : 0, -15, 2.8, 5%, -5%, -0.5%, ?
O=C(CNC(=O)c1cccs1)NCCN1CCN(c2ccccc2F)CC1
 : -8, -23, 0.6, -13%, 0%, -1.3%, -11%
COc1ccc(N2C(=O)c3cccc4cccc(c34)C2=O)nn1
 : -7, -1, 1.0, 8%, 7%, 16µM*, 8%
CN(Cc1ccccc1)C(=O)c1ccc2c(c1)OCCO2
 : -16, -18, 1.4, 3%, 10%, 0.4%, 5%
O=C(O)/C=C/C(=O)NNC(=O)c1cccc(Br)c1
 : 15, -20, -1.4, ?, -9%, 1.1%, 1%
O=C1CC(c2ccc(O)c(O)c2)Oc2c1ccc(O)c2O (stereo unspecified)
 : 2, 2, 4.3, 56µM*, -5%, -2.2%, .
Cc1n[nH]c(=S)n1/N=C/c1ccc(-c2ccc(Cl)cc2)o1
 : ., -3, ., ., 15%, -1.3%, ?
CC(=O)c1ccc(N2CCN(C(=O)C(=O)c3c(C)[nH]c4ccccc34)CC2)cc1
 : -1, -15, -0.6, 19%, -31%, -9.6%, -74%[inhibitor]
C/C(N)=C(/C#N)C(=O)COC(=O)Cc1coc2cc(C)ccc12
 : -11, -9, -2.4, 3%, -35%, 0.1%, 21%[15.4 µM]
Cn1c(SCCN2CCCC2)nnc1C1CCN(S(=O)(=O)c2ccc(F)cc2)CC1
 : -6, -11, -3.3, 7%, 20%, ., -6%[15.4 µM]
CC(C)CC(C(=O)O)N(Cc1ccccc1)Cc1ccccc1 (stereo unspecified)
 : 7, 2, 1.2, 13%, 8%, -0.9%, 6%
Cc1ccc2nc(SCC(=O)Nc3cccc(F)c3)nc(=O)n2c1
 : 6, -20, ., ., 4%, -3.7%, ?
COc1ccc(C(OC(=O)c2cccs2)C(=O)NCC2CCCO2)cc1 (stereo unspecified)
 : 3, 15, 2.2, 11%, -2%, 1.5%, 4%
O=C(CN(C(=O)CNS(=O)(=O)c1ccccc1)C1CCCC1)NCc1ccco1
 : -3, 11, 1.4, -17%, -4%, ?, 26%
CC(=O)c1ccc(OCc2cc(C(=O)N3CCC(Oc4ccccc4C)CC3)no2)cc1
 : -4, -1, -2.0, -1%, -28%, -0.7%, -11%
COc1ccc(-c2cc(C(F)(F)F)c3c(=O)n(-c4ccccc4)[nH]c3n2)cc1
 : 9, -15, 1.9, -26%, ?, 1.0%, 0%
Cc1ccc(C(=O)Nc2cccc(C(=O)NC3CCCCC3)c2)cc1
 : ., -3, ., ., -19%, 1.1%, ?
CC(C1CCN(Cc2nc(C3CC3)no2)CC1)N1CCOCC1 (stereo unspecified)
 : -5, -9, 0.0, 16%, -1%, -1.7%, -3%
C=C(C)CN=c1scc(C)n1/N=C/c1ccco1
 : ?, 0, 2.4, -10%, -2%, -2.1%, -6%
O=c1c2ccccc2oc2cc(-c3ccc4[nH]ccc4c3)ccc12
 : ., -14, ., ., 9%, -2.8%, .
O=C1c2ccccc2C(=O)N1C1CCCCC1
 : ?, -6, 3.5, -9%, 5%, -7.1%, -10%[15.4 µM]
Cc1ccc(OCc2cc(C(=O)NCC(C)(C)N3CCOCC3)no2)cc1C
 : -7, 6, ., 4%, -5%, -0.5%, -13%
O=C(c1ccc2ccccc2c1)N1CCN(c2ccccc2)CC1
 : 1, -5, 2.2, 7%, 2%, 0.6%, -21%
CC(C)CN(C(=O)COC(=O)c1cc2ccccc2oc1=O)C1CCS(=O)(=O)C1 (stereo unspecified)
 : 11, -3, 1.0, 12%, ., ., .
O=C(O)c1cc(S(=O)(=O)N2CCCC2)ccc1Br
 : 13, -1, 4.0, 7%, 6%, 0.4%, -1%
COc1ccc(/C=C/C(=O)NCC(=O)N/N=C/c2cccnc2)cc1
 : -30, -5, 2.1, 11%, 4%, ., -25%[15.4 µM]
c1ccc(-c2nn3c(-c4ccccc4)nnc3o2)cc1
 : ., -7, ., ., ., -4.0%, 5%
COc1ccc(/C=C(/NC(=O)c2ccccc2)C(=O)N2CCCC2)cc1
 : 29, -2, -0.7, 13%, 2%, ., 4%
NC(=O)C1(NC(=O)[C@@H]2CC3(CC(c4cccc(NC(=O)[C@@H]5CCC(=O)N5)c4)=NO3)CN2C(=O)Cc2ccc(C(F)(F)F)cc2)CC1 (stereo partly specified)
 : 7, -12, 1.5, 23%, 6%, -5.2%, -6%
COc1cccc2cc(C(=O)Nc3ccccc3Cl)/c(=N/NS(=O)(=O)c3ccccc3)oc12
 : 10, -7, 5.5, 13%, 7%, 0.0%, -1%
CCCC(C)NC(=O)CN1C(=O)NC2(CCc3ccccc32)C1=O (stereo unspecified)
 : -1, -11, ., 11%, 2%, -0.1%, -34%

Structures listed so far with a CF3 group (2):
Every second line gives: TRPV1 potentiator, D2 potentiator, Menin-MLL FL inh, Sfp PPTase inh, gsp antag, ClpP mod, gsp ag
COc1ccc(-c2cc(C(F)(F)F)c3c(=O)n(-c4ccccc4)[nH]c3n2)cc1
 : 9, -15, 1.9, -26%, ?, 1.0%, 0%
NC(=O)C1(NC(=O)[C@@H]2CC3(CC(c4cccc(NC(=O)[C@@H]5CCC(=O)N5)c4)=NO3)CN2C(=O)Cc2ccc(C(F)(F)F)cc2)CC1 (stereo partly specified)
 : 7, -12, 1.5, 23%, 6%, -5.2%, -6%

Two entries from above, with bars between the fields:
canonical_smiles | TRPV1 potentiator | D2 potentiator | Menin-MLL FL inh | Sfp PPTase inh | gsp antag | ClpP mod | gsp ag
CCCC(C)NC(=O)CN1C(=O)NC2(CCc3ccccc32)C1=O (stereo unspecified) | -1 | -11 | . | 11% | 2% | -0.1% | -34%
COc1ccc(/C=C(/NC(=O)c2ccccc2)C(=O)N2CCCC2)cc1 | 29 | -2 | -0.7 | 13% | 2% | . | 4%

Next entries
Every second line gives: TRPV1 potentiator, D2 potentiator, Menin-MLL FL inh, Sfp PPTase inh, gsp antag, ClpP mod, gsp ag
CCCCN(C(=O)COc1ccc(F)cc1)c1c(N)n(CC(C)C)c(=O)[nH]c1=O
 : ., -7, ., ., ., -1.1%, 0%
COc1ccc(Nc2nc3ccccc3s2)cc1
 : -10, -6, 7.7, 5%, -10%, ., 11%
COc1ccc(CNC(=O)CC23CC4CC(CC(C4)C2)C3)cc1
 : -5, -1, -4.5, 12%, -16%, ., 0%
COc1cccc(OCc2nnc(SCC(=O)OC3CCCCC3)n2C)c1
 : -8, -6, -0.5, 12%, -34%, 1.2%, -14%
Cc1ccccc1NC(=O)CSc1nnnn1C
 : 1, -19, 2.0, 11%, 8%, 1.2%, 3%
Cn1c(SCc2cccc(F)c2)nnc1-c1cnccn1
 : -23, -7, -8.2, 7%, 2%, 0.9%, -15%[15.4 µM]
Cc1ccc(Nc2nnc(SCC(=O)NC(Cc3c[nH]c4ccccc34)C(=O)O)s2)cc1 (stereo unspecified)
 : 12, ?, -0.2, -13%, 3%, 1.3%, ?
CS(=O)(=O)c1ccc2nnn(OCC(=O)Nc3cccc(C#N)c3)c2c1
 : 12, -12, 3.7, 12%, 16%, 2.1%, 4%
COc1ccccc1NC(=O)CS(=O)(=O)c1cn(CC(=O)N2CCOCC2)c2ccccc12
 : -21, -4, -0.7, -4%, -10%, 0.9%, -8%
COc1ccccc1-c1noc(-c2ccccc2C(=O)Nc2ccccc2)n1
 : 0, -1, -0.7, 26%, -9%, -1.0%, -5%
CN(NC(=O)c1cccc(Cl)c1)c1nc(-c2ccccc2)nnc1C(F)(F)F
 : 10, -4, 0.0, -15%, -25%, 0.8%, ?
CN(c1ccccc1N(C)S(=O)(=O)c1ccccc1)S(=O)(=O)c1ccccc1
 : ., 2, ., ., -2%, 0.0%, -21%
CCN1CCN(Cc2ccc(NC(=O)c3ccc(C)c(NC(=O)c4cncc(-c5cccs5)c4)c3)cc2C(F)(F)F)CC1
 : ., -80, ., ., 3%, -8.2%, .
